Six1-Eya2 inh – Six1/Eya2 interaction inhibition. activity change, % (concentration not given with the values). Q15475+O00167. actives 0.56% (n = 360,000). AID 651725. AlphaScreen GST-Six1/His-Eya2 binding, biochemical; hits give low values; control for the full effect not named in the record; in the data active = activity change below about -65%; inconclusive = about -30% to -65%; inactive = above about -30%; also: % is scaled to controls: 0 for no effect and ±100 for the full control effect
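GST-Six1 + His-Eya2 (5X stock: 250/500 nM); Tris pH 8.0, 300 mM NaCl, 0.05% BSA, 0.02% Tween 20; GSH donor/Ni acceptor beads; 1 h 37 °C dark; AlphaScreen readout.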
TRPML1 blocker – inhibitors of human TRPML1 channel. Q9GZU1. TRPML1-inducible cells, Ca2+ dye fluorescence, FDSS; hits give low values; inhibition of EC80 agonist-evoked calcium signal. activity change, negative = inhibition, % (test concentration not listed). actives 0.02% (n = 390,000). AID 624415; in the data active means activity change below about -50%; inconclusive means about -30% to -50%; inactive means above about -30%;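 also: stimulus is agonist 54-4 at its EC80 concentration; % is scaled to controls: 0 for no effect and ±100 for the full control effect; compound concentration not given in the record; the text of the record puts the active cut at -80%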
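TRPML1-DL cells, Tet-induced overnight (~16 h, 37 °C) at 1,500 cells/well, were loaded with Ca8 no-wash dye plus quencher for 45-90 min at room temperature. Compounds were pinned during FDSS kinetic reading; agonist 54-4 at EC80 (4 uM final) then added.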
TRPML1 ag – activates the human TRPML1 channel | TRPML1-expressing cells, Ca2+ dye fluorescence, FDSS; host cell line not named in the record; reference of the full effect not given here | activation, % (test concentration not listed) | actives 0.12% (n = 410,000) | AID 624414; in the data active = activation above about 50%; inconclusive = about 30% to 50%; inactive = below about 30%; also: 0% is about no effect; the text of the record puts the active cut at 80%
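Agonist activity was taken from a 110 s kinetic Ca2+ dye read on the FDSS after pinning compounds onto TRPML1-DL cells. The cells were seeded at 1,500/well with Tet inducer, incubated about 16 h, then dye-loaded at room temperature.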
D2 potentiator – positive allosteric modulators of human D2 dopamine receptor. P14416. DiscoveRx D2 beta-arrestin cells, luminescence, 90 min; 100% = 57 uM dopamine signal. potentiation, % (concentration not given with the values). actives 0.23% (n = 360,000); active = potentiation of 50% or more; inconclusive = 30% to 50%; inactive = 30% or less;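 also: compound concentration not given in the record; tested on top of an EC20 dose of dopamine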
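PathHunter D2 cells, attached overnight at 37 deg C, received compound in DMSO plus dopamine at EC20 (50 nM final) for 90 min at 37 deg C. Beta-arrestin recruitment was read as luminescence after 1 h with detection reagent at ambient temperature.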
CtBP-E1A inh – blocks the CtBP interaction with E1A; AlphaScreen GST-E1A/His-CtBP binding, 1536-well; hits give low values; control for the full effect not named in the record; activity change, % (no concentration beside the values); actives 0.49% (n = 340,000); in the data active means activity change below about -65%; inconclusive means about -30% to -65%; inactive means above about -30%; also: % is scaled to controls: 0 for no effect and ±100 for the full control effect; compound concentration not given in the record
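GST-E1A and His-tagged CtBP (125 nM each as 5X stock) were preincubated with pin-transferred compound for 2 h at 37 °C in the dark, then glutathione donor and nickel acceptor beads were added for 1 h before AlphaScreen reading.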
TRPV1 PAM – enhances activation of the human vanilloid receptor TRPV1 | potentiation, % at 8.33 µM | AID 540277 | actives 0.02% (n = 320,000) | TRPV1-expressing cells, Fluo-8 calcium influx, capsaicin EC20 potentiation; host cell line not named in the record; control for the full effect not named in the record | Q8NER1; active means potentiation above 80%; inconclusive means 30% to 80%; inactive means below 30%; also: 0% is about no effect
Target sequence (Q8NER1 whole entry, looked up): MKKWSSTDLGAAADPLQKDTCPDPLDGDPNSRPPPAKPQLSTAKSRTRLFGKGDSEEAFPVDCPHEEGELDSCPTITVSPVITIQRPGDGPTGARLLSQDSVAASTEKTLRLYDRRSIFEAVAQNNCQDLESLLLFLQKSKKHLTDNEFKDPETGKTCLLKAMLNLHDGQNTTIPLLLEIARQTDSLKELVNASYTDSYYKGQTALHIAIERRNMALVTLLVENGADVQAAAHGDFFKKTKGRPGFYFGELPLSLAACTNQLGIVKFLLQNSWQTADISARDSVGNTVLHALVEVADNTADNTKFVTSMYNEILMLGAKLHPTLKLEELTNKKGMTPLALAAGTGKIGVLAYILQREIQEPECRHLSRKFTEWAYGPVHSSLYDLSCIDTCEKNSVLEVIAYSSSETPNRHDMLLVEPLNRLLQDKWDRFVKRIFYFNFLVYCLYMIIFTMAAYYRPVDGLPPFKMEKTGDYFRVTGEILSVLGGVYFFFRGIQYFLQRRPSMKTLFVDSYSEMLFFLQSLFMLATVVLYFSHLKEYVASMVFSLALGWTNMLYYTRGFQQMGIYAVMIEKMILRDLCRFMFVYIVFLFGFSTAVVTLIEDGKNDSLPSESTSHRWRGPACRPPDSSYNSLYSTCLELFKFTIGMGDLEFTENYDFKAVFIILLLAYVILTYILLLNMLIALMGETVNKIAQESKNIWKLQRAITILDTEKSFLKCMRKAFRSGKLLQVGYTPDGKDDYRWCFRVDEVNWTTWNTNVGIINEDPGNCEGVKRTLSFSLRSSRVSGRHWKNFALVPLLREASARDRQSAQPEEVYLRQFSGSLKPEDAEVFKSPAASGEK
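TRPV1-expressing cells were cultured overnight at 35.5C and loaded with Fluo-8 calcium dye for 40 to 90 min at room temperature. After a 10 s baseline, compound was added and calcium influx was read kinetically for 3 min (ex 480/em 520 nm).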
The depositor's hits bear a star; u = inconclusive; x = no result given; & = joins results of further samples.

Sequence of screens: TRPML1 blocker, D2 potentiator, CtBP-E1A inh, TRPV1 PAM, Six1-Eya2 inh, TRPML1 ag
- Cc1ccc(OCCC(=O)OCC(=O)c2c(N)n(CC(C)C)c(=O)n(C)c2=O)cc1
→ 25, 8, -2, 1, 3, -0.3
- COc1ccc2c(Cl)c(C(=O)NN)sc2c1
→ -2, 9, 14, -10, -2, 3.6
- Cc1nc(N)nc(OCC(F)(F)C(F)F)c1Br
→ 48, -7, 4, -5, 1, 3.4
- COc1cc(CN/C(C)=C(\C#N)C(N)=O)cc(OC)c1OC
→ 1, -7, -6, 6, 2, 0.4
- COc1ccc2[nH]c3c(C)c4cc[n+](C)cc4c(C)c3c2c1
→ -12, -19, 0, x, u, 0.7
- COc1ccc(/C=C2\SC(=O)N(CCC(=O)Nc3ccccc3)C2=O)cc1OC
→ -22, -5, 6, 0, 12, 0.7
- COc1ccc(NC(=O)CN(C)C(=O)c2cc3c(s2)CCC3)cc1
→ -2, -2, -1, 6, -29, 4.1
- CC(=O)c1ccc(NC(=O)c2cccc(NC(=O)c3ccccc3)c2)cc1
→ -12, -2, -1, -4, -9, -0.5
- O=C(C1CCC(=O)N(C2CCCC2)C1)N1CCC(Oc2cccc(F)c2)CC1 (stereo not drawn)
→ -7, -7, 7, -5, 1, -0.1
- Cc1ccc(-c2nc(N)sc2CC(=O)OCC(=O)N2C(C)CCCC2C)cc1 (stereo not drawn)
→ 21, -10, 2, 8, -1, -0.9
- Cc1cccc(CSc2nnnn2-c2ccccc2)c1
→ -7, 3, 81, 6, 76, -0.1
- COc1ccc([C@@H]2C[C@H]3CN(Cc4ccccc4OC)C(=O)[C@]34CCCN24)cc1C
→ 7, -9, x, 1, 0, 0.7
- O=C(NS(=O)(=O)c1ccc(Cl)s1)c1ccccc1
→ -4, -15, x, 11, 0, -0.7
- CCOc1ccccc1NC(=S)N1CCN(c2ccccc2)CC1
→ 1, -4, -7, 15, -4, 0.6
- COc1ccc(N2C(=O)CSC23CCC(C(C)(C)C)CC3)cc1 (stereo not drawn)
→ -10, -5, 3, -7, 1, 2.7
- Cc1nc(-c2noc(-c3ccccc3Cl)n2)c(C(F)(F)F)o1
→ 4, -15, x, -4, 5, -1.4
- CCOc1ccc2nc(-c3ccc(OC)c(OC)c3)cc(C(=O)O)c2c1
→ 5, 4, -3, -2, -8, 1.3
- CCOC(=O)C[n+]1c(C)ccc2c1CCC2
→ -8, -8, 0, 2, -1, -0.5
- CCn1c(=O)c(C(=O)NCCN2CCCCC2)c(O)c2ccccc21
→ 0, -41, -9, 18, -10, -0.4
- C=CCCN(Cc1ccccc1)S(=O)(=O)c1ccccc1Br
→ -2&38, -9, x, 4, 31, 3.0&2.3
- CCC1(c2ccccc2)NC(=O)N(CC(=O)NNC(=O)c2ccoc2C)C1=O (stereo not drawn)
→ 0, -2, -6, 18, -11, -0.1
- O=C(CN1C(=O)C2C3C=CC(C3)C2C1=O)Nc1ccc(S(=O)(=O)Nc2nccs2)cc1 (stereo not drawn)
→ -16, -9, x, -1, -3, -0.3
- Cc1nc([N+](=O)[O-])c(Br)n1CC(=O)c1ccc(Cl)cc1
→ -9, -33, 1, 7, 14, 0.1
- CSc1ncccc1C(=O)OCC(=O)c1cccs1
→ -2, 3, 1, -40, 11, 0.6
- Fc1ccc(C2NC(=S)NC3=C2N2CCC3CC2)cc1 (stereo not drawn)
→ -8, -8, 13, -8, 4, 2.8
- COc1ccc(NC(=O)CS(=O)(=O)c2cn(CC(=O)N3CCCC3)c3ccccc23)c(OC)c1
→ 3, u, 0, 10, -7, -0.2
- CC1CCc2onc(C(=O)NCc3ccco3)c2C1 (stereo not drawn)
→ 12, -5, -1, -4, -2, -0.4
- CCOCCCn1c(SCc2nc3ccccc3s2)nc2ccccc2c1=O
→ 8, 5, 3, 10, 5, 1.9
- NC(=S)N/N=C/c1ccccc1[N+](=O)[O-]
→ 7, -5, 2, -9, 2, -0.3
- CN(C)c1ccc(/C=C2\SC(=S)N(Nc3ncc(C(F)(F)F)cc3Cl)C2=O)cc1
→ -4, -23, -11, 24, -3, 53*

2 successive records already listed:
Sequence of screens: TRPML1 blocker, D2 potentiator, CtBP-E1A inh, TRPV1 PAM, Six1-Eya2 inh, TRPML1 ag
- Cc1nc(-c2noc(-c3ccccc3Cl)n2)c(C(F)(F)F)o1
→ 4, -15, x, -4, 5, -1.4
- CCOc1ccc2nc(-c3ccc(OC)c(OC)c3)cc(C(=O)O)c2c1
→ 5, 4, -3, -2, -8, 1.3

Remaining list, next part:
Sequence of screens: TRPML1 blocker, D2 potentiator, CtBP-E1A inh, TRPV1 PAM, Six1-Eya2 inh, TRPML1 ag
- O=C(CSc1ncn[nH]1)NCCCc1ccccc1
→ 8, -7, -1, u, -1, -0.9
- CCOP(=O)(OCC)C(Nc1ccccn1)c1ccccc1 (stereo not drawn)
→ 7, -15, 20, -4, -3, -0.2
- Cc1cc(C)n2ncc(C(=O)O)c2n1
→ -16, -17, 1, 3, 0, -0.4
- CCSc1nnc(NC(=O)CSc2nc3c(c(=O)n2-c2ccccc2OC)SCC3)s1
→ -9, -1, -14, u, -8, 1.5
- O=c1[nH]c(CN2CCN(c3ccc(O)cc3)CC2)nc2scc(-c3ccc(Cl)cc3)c12
→ 16, 6, -20, 4, u, 0.1
- CCNC(=S)NNC(=O)CCc1nc2cc(Cl)ccc2n(Cc2ccccc2)c1=O
→ 13, -9, 0, 1, 0, 0.3
- CCOc1ccc(C(C)=O)cc1CN1C(=O)C(=O)N(CC)C1=O
→ 23, -7, 14, -1, -1, -0.4
- Nc1nnn(CC(=O)N/N=C/C=C/c2ccccc2)n1
→ -20, -4, -13, -8, 0, 0.5
- CCCc1ccc(OCc2ccc(C(=O)N/N=C/c3cccc([N+](=O)[O-])c3)o2)c(OC)c1
→ 14, 1, -5, 2, 3, -1.0
- Cc1cccc(C(=O)N2CCC(=O)N(C(COCc3ccccc3)Cc3ccccc3)CC2)c1 (stereo not drawn)
→ 0, -12, -17, 0, -14, -0.7
- COc1nc(Nc2ccc3c(c2)OCO3)nc(OC)n1
→ 21, -1, -2, 8, -13, -1.2
- COc1ccc(Cc2c3cc(OC)c(OC)cc3cc[n+]2C)cc1OC
→ -10, -2, 0, -3, 1, 0.9
- Cc1ccccc1NC(=O)c1ccc(C)c(S(=O)(=O)N2CCN(C)CC2)c1
→ -8, -2, 2, 2, 12, -0.4
- O=C(COc1ccc2cc(Br)ccc2c1)N1CCCC1
→ -1, -8, -13, -3, 0, 1.0
- CCN(C(=O)CSc1nc(C)nc2sc(C)c(C)c12)C1CCS(=O)(=O)C1 (stereo not drawn)
→ -12, -1, -5, 0, 9, 1.8
- COc1ccc(S(=O)(=O)N2CCCCCC2)cc1C(=O)N(C)Cc1cccs1
→ 28, -8, -3, -5, -4, 0.2
- COc1cc(C(=O)N2CCN(C(=O)COc3ccc4ccccc4c3)CC2)cc(OC)c1OC
→ -1, -11, 7, 10, 1, 0.0
- CSC(=S)NCc1cccnc1
→ 2, -5, -16, 8, 11, 0.5
- Cc1ccc(C)c(N2CCN(C(=O)C3CCN(S(=O)(=O)c4c(C)noc4C)CC3)CC2)c1
→ -10, -14, x, 3, -2, 0.6
- C[C@]1(C2CCCC2)Cc2cc(OCC(=O)O)c(Cl)c(Cl)c2C1=O
→ 0, 5, -4, x, 5, -0.9
- O=C(COc1cccc2c1CCNC2=O)NC1CCCCC1
→ -1, 14, 1, -31, -2, -0.3
- Cc1ccc(C)c(S(=O)(=O)Nc2cccc(-n3cnnn3)c2)c1
→ 7, -1, -4, 6, 3, 0.9
- Cc1cc(C)n2nc(C(=O)OCC(=O)Nc3ccc(C)c(F)c3)nc2n1
→ -10, -6, 0, x, -4, 0.4
- Cc1ccccc1N1CCN(C2CCCN(C(=O)CCC(=O)N(C)C)C2)CC1 (stereo not drawn)
→ -5, -18, 4, 14, 3, 0.3
- O=C(CNc1ccc(Cl)c(C(F)(F)F)c1)N1CCN(S(=O)(=O)c2ccccc2)CC1
→ 41, -7, 0, x, -4, 1.1
- Cc1ccc(CN2CCNC(=O)C2CC(=O)N(C)C2CCOCC2)cc1 (stereo not drawn)
→ -13, -15, 20, -7, 2, 0.0
- COc1ccc(-c2cn(-c3ccc(SC(F)F)cc3)c3[n+]2CCC3)cc1OC
→ -3, -7, -1, -11, -10, -0.1
- CCOC(=O)c1oc2c(CN3CCN(CCO)CC3)c(O)c(CC)cc2c(=O)c1-c1nc2ccccc2s1
→ 3, 7, -27, 10, 19, -0.7
- CC(C)(C)OC(=O)NCCCCCc1nnc(SCC(=O)Nc2cccc(Cl)c2)o1
→ 18, 2, -7, 11, 3, 2.3
- C=CCc1ccccc1OCCn1nnc2ccccc21
→ -4, -1, x, u, 0, 0.3

Full records as entered above. Order of screens: TRPML1 blocker | D2 potentiator | CtBP-E1A inh | TRPV1 PAM | Six1-Eya2 inh | TRPML1 ag
Profile of Cc1nc([N+](=O)[O-])c(Br)n1CC(=O)c1ccc(Cl)cc1 : -9 | -33 | 1 | 7 | 14 | 0.1
Profile of COc1ccc2c(Cl)c(C(=O)NN)sc2c1 : -2 | 9 | 14 | -10 | -2 | 3.6
Profile of COc1ccc(NC(=O)CN(C)C(=O)c2cc3c(s2)CCC3)cc1 : -2 | -2 | -1 | 6 | -29 | 4.1

Following part.
Sequence of screens: TRPML1 blocker, D2 potentiator, CtBP-E1A inh, TRPV1 PAM, Six1-Eya2 inh, TRPML1 ag
- CC(C)Cn1nnc2c(=O)oc3ccccc3c21
→ 7, 6, 0, x, -1, -0.3
- CC1=CC(=O)C=C(C)C1=NOc1ccc([N+](=O)[O-])cc1
→ 8, 0, -2, 20, -4, 3.2
- Cc1nn(-c2ccccc2)c(C)c1NC(=O)COC(=O)c1cc([N+](=O)[O-])ccc1NCCO
→ -9, 6, -7, -12, -4, 2.3
- COc1cccc(CNC(=O)CCl)c1
→ 10, -10, 3, 0, 5, -0.4
- COC(=O)c1nc2n(n1)C(c1cccc(Cl)c1)C1=C(CCCC1=O)N2 (stereo not drawn)
→ 14, -4, 4, 2, 4, 0.1
- Cc1cc(Nc2ccc(Br)cc2)nc2ccccc12
→ 7, -8, 10, x, 14, 1.6
- Fc1ccccc1N1CCN(C(c2ccncc2)c2nnnn2C2CCCC2)CC1 (stereo not drawn)
→ 13, -13, 9, -9, -2, -0.4
- O=C(Nc1ccc(N2CCOCC2)c(Cl)c1)c1ccc([N+](=O)[O-])o1
→ 25, 1, x, 5, -2, -0.1
- COC(=O)CC1COc2ccccc2N1C(=O)c1ccc(OC)cc1 (stereo not drawn)
→ -5, -4, 8, 2, 1, 0.1
- CCN(CC(=O)Nc1c(F)cccc1F)C(=O)c1ccc(COc2ccccc2)o1
→ -9, -12, 1, 0, 0, -0.4

Source: PubChem (National Center for Advancing Translational Sciences (NCATS))
